# Ba CapD inh = Bacillus anthracis CapD inhibitors, primary screen, biochemical, fluorescence intensity; CapD gamma-glutamyltranspeptidase (Bacillus anthracis Ames Ancestor); purified CapD enzyme, fluorescence intensity read-out; stronger effect = lower value; some hits fall short of the stated cut; z-score (concentration not given with the values); 0.23% of 140,000 active; AID 492967, 2010;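 active means z-score under -4 in either of two replicates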;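 further: stock transfer was 100 nL into about 40 µL; score is relative to mean and spread of the plate; one replicate is shown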
# AID504770 = growth inhibition of E. coli YBA685, primary screen, V. cholerae RctB inhibitors; E. coli YBA685 rctB-dependent plasmid, OD600 growth, 3 h; stronger effect = lower value; z-score (test concentration not listed); 0.27% of 130,000 active;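 active means z-score under -2 on both plates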;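 further: wells of about 30 µL received 100 nL stock; score is relative to mean and SD of the test wells; the first replicate is given; strong numbers were not always called active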
# * hit, by the source's call; . = no result given; & = joins results of further samples.
SMILES,Ba CapD inh,AID504770
COc1ccc(CCNC(=O)c2ccc(-n3cncn3)cc2)cc1,.,-0.2
CC(C)NC(=S)NNc1ncc(C(F)(F)F)cc1Cl,.,-0.1
FC(F)(F)c1cnc(/N=C/N2CCCCC2)c(Cl)c1,10,.
Cc1ccc(CC(=O)Nc2cc(C)on2)cc1,0.01,-0.15
O=C(OCCN1C(=O)c2ccccc2C1=O)N1CCC(O)(Cc2ccccc2)CC1,0.01,.
CCCS(=O)(=O)c1c(S(=O)(=O)CCC)c2c(C)cccn2c1C(=O)N/N=C/c1cccc(F)c1,0.18,.
Cc1cccc(NS(=O)(=O)c2ccc(CCN3C(=O)c4cccnc4C3=O)cc2)c1C,-0.21,-0.2
NC(=O)C1C2C=CC(C2)C1C(=O)O (centres undefined),-0.7,-0.75
Cn1ccnc1SCC(=O)c1cccc(C(F)(F)F)c1,-0.65,-0.45
COc1cc(/C=C2\SC(N3CCN(CCO)CC3)=NC2=O)ccc1OCc1ccccc1,1.6,-1.7
CC1CCN(C(=O)COC(=O)c2ccc(N(C)C)cc2)CC1,-0.36,-0.45
NC(=O)CSc1nnc2c(n1)[nH]c1ccc(Cl)cc12,.,3.6
O=C(O)C1CSC(c2ccccc2)N1 (centres undefined),0.045,-0.9
COc1ccc(COC(=O)NNC(=O)c2ccncc2)c(Cl)c1OC,-0.45,.
O=C(CSc1nc(=O)n(CCCN2CCOCC2)c2c1CCCC2)N1CCc2ccccc21,.,1.8

# Overlap with the part before: 2 entries, then new ones.
SMILES,Ba CapD inh,AID504770
COc1ccc(COC(=O)NNC(=O)c2ccncc2)c(Cl)c1OC,-0.45,.
O=C(CSc1nc(=O)n(CCCN2CCOCC2)c2c1CCCC2)N1CCc2ccccc21,.,1.8
COc1cc(C(=O)CN(C)C2CCCCC2)cc(OC)c1OC,.,-0.65
COCc1cc(OC(C)C)nc(-c2cccc(C)c2)n1,-0.34,0.2
Clc1cc(CN2CCN(C(c3ccccc3)c3ccccc3)CC2)ccn1,-0.47,.
CC(Oc1ccc(C#N)cc1)C(=O)NN1C(C)CCCC1C (centres undefined),.,1
c1cc(C2OCCO2)ccc1C1OCCO1,.,-0.8
CCSc1nnc(NC(=O)CC2OC(=O)c3ccccc32)s1 (centres undefined),.,-0.3
Fc1ccc(-c2nnc3ccc(N4CCN(C(=S)NCc5ccccc5)CC4)nn23)cc1,0.58,0.8
COc1cccc(Nc2ccc(Nc3cccc(OC)c3)nn2)c1,-0.38,-0.25
CC(C)NC(=O)CSCc1ccc(Cl)cc1,0.27,-0.1
CSc1ccccc1NC(=O)c1cc2n(n1)C(C(F)(F)F)C1CCc3ccccc3C1N2 (centres undefined),1.8,2.2
CCn1c(CNC(=O)c2ccc(C)cc2)nnc1SCC(=O)NCc1ccccc1,0.24,-0.25
N#Cc1nc(-c2ccccc2F)oc1NCC1CCCO1 (centres undefined),0.34,0.1
CN1C2CCC1CC(=NOC(=O)c1ccc(F)cc1)C2,0.28,-0.2
CCN(CC)c1ccc(CN2CCCC(CO)C2)cc1 (centres undefined),0.045,2
Fc1ccc(Br)cc1C1Nc2cccc3cccc(c23)N1,0.05,.
N#CCCc1cccc(OCc2ccccc2)c1OCc1ccccc1,-0.52,.
O=C(c1cccnc1)N1N=C(c2c(-c3ccccc3)c3cc(Br)ccc3[nH]c2=O)CC1c1ccccc1 (centres undefined),0.52,.
Cn1cnc2c(Cl)ncnc21,.,0.5
CCOC(=O)C1=C(C)N(C)C(c2ccccc2)(C(F)(F)F)NC1=O (centres undefined),.,0.75
COC(=O)c1ccc(N)cc1,.,-0.95
Cn1c(Cc2cccs2)nnc1SCC(=O)C12CC3CC(CC(C3)C1)C2,.,-0.25
O=C(Oc1ccc2ccccc2c1)c1ccccc1O,0.38,0.3
Cc1cc(C)nc(N2CCOCC2)n1,7.8,1.1
CCCCOC(=O)Cn1c2ccccc2c2nc3ccccc3nc21,-0.37,-1.9
COC(=O)C1C2C=CC3(CN(C(C)c4ccccc4)C(=O)C13)O2 (centres undefined),-0.19,1.6
Cc1cc(S(=O)(=O)N2CCN(Cc3noc(CCC(=O)N(C)C4CCCCC4)n3)CC2)ccc1F,0.59,0.05
CN(C(=O)Cn1ncc2c(=O)oc3ccccc3c21)c1ccc(F)cc1,0.66,-0.15
O=S(=O)(c1cccc2cccnc12)N1CCC(n2cccc2)CC1,0.57,-0.15
O=C(CCCCCN1C(=O)c2ccccc2C1=O)Nc1ccc2c(c1)OCO2,-0.15,-0.6
COc1cc2c(cc1OC)C1=C(C#N)COCN1CC2,0.6,-0.15
COc1ccc(S(=O)Cc2ccc(C(=O)NCCN(C)C)o2)cc1 (centres undefined),-0.34,0
CC(C)CCn1c(=O)c2cccnc2n(Cc2cccc(F)c2)c1=O,-0.27,-0.35
O=[N+]([O-])c1ccc(Oc2ccc(OCc3ccccc3)cc2)nc1,-0.15,.
Cc1cc(C)nc(SCC(=O)NC2CCCCC2)n1,-0.45,-0.8
Cc1ccc(-c2noc(COC(=O)c3cccnc3SCC(=O)Nc3ccccc3OC(F)F)n2)cc1,.,-0.3
CCN1C(=O)/C(=C/c2cccc(OC)c2)SC1=S,0.085,-0.35
CCC(=O)Nc1ccccc1-c1nc2ccccc2s1,-0.29,-0.15
Cc1sc(-c2cnn(-c3ccccc3)c2N)nc1-c1ccccc1,.,-0.15
CNC(=O)COC(=O)c1ccccc1OC,.,-0.45
CCN1C(=O)CSc2ccc(C(=O)NC3CCCCCCC3)cc21,-1.6,-0.3
Cc1ccc(-c2noc(CCC(=O)N(C)C)n2)cc1,-0.88,-0.95
COc1cccc2c1NC(c1ccccc1Br)C1CC=CC21 (centres undefined),-0.05,.
Cc1ccc(S(=O)(=O)Nc2ccc3[nH]c(C)cc3c2)cc1,-0.39,.
Cc1cccc(N)c1-c1c(C)cccc1N,-0.045,-0.95
COC(=O)CNC(=O)c1cc([N+](=O)[O-])ccc1Oc1ccc(OC)cc1,-0.32,.
Cn1ccnc1C(=O)c1cc(SCC(=O)Nc2ccc3c(c2)OCO3)nc2ccccc12,.,-0.15
Cc1cc(C(=O)Nc2cccc(Cl)c2)on1,-0.35,-0.7
N#Cc1ccc(N2CCN(C(=O)c3ccc(C(F)(F)F)cc3)CC2)cc1,-0.21,.
CN(C)CC[C@H](c1ccc(Cl)cc1)c1ccccn1,.,-0.05
O=C(N/N=C/c1ccccc1F)c1ccccc1,-0.045,-0.05
CCCc1oc(C(=O)O)cc1CN1CCOCC1,.,-0.85
N#CCCN(Cc1cccs1)C(=O)c1cccs1,-0.53,-0.85
CCc1cccc(NC(=O)CSc2nnc(Cc3ccccc3)n2N)c1,.,1.1
COc1ccc(N2C(=O)c3ccccc3NC2c2ccc3c(c2)OCO3)cc1 (centres undefined),15,0.65
O=C(C(c1ccccc1)c1ccccc1)N1CCCCC1,-0.03,-0.9
COCCN(CCOC)C(=O)c1c[nH]c2ccc(S(=O)(=O)N(C)c3ccc(Br)cc3)cc2c1=O,0.16,.
S=c1oc2ccccc2n1CNc1ccccn1,.,-0.1
O=C1N=C2N(CCN3CCCCC3)c3ccccc3N2/C1=C\c1ccc([N+](=O)[O-])s1,-0.01,.
CCCn1nc(NC(=O)c2cccc(Cl)c2)c2cc3cc(C)ccc3nc21,-0.92,0.7
CC1=C(C(=O)Nc2cc(C)ccn2)C(c2ccc(Br)cc2)C2=C(CC(C)(C)CC2=O)N1 (centres undefined),18,.
# (cont.)
SMILES,Ba CapD inh,AID504770
O=C(CSc1nc2ccccc2o1)Nc1cccc2ccccc12,-0.045,.
O=C(NCCc1ccccc1)C1CCCN(c2ncnc3c2sc2cccc(F)c23)C1 (centres undefined),-0.055,0.55
COc1ccc(S(=O)(=O)NNC(=O)C2CC(c3cccnc3)=NO2)cc1 (centres undefined),-0.005,.
O=C(O)c1c2c(nc3ccccc13)CCN(S(=O)(=O)c1ccccc1)C2,-0.02,.
O=C1C(Oc2ccccc2)C(c2cccs2)N1Cc1ccc2c(c1)OCO2 (centres undefined),-0.34,-0.35
CCOc1ccc(S(=O)(=O)N(C)c2ccc(OCC(=O)NCC3CCCO3)cc2)cc1 (centres undefined),.,-1.9
O=S(=O)(Nc1ccc(C(F)(F)F)cc1)c1cnc[nH]1,-0.065,-1.2
CCOc1cc(C2C(C#N)=C(N)OC3=C2C(=O)CC(C)(C)C3)ccc1OC(=O)N1CCOCC1 (centres undefined),0.49,.
Cc1nnc(C)n1/N=C\c1cccc(OCc2ccccc2)c1,-0.99,0.9
O=C(NCc1cccs1)c1cc(-c2ccccc2)nc2ccccc12,0.98,0.65
CCCCn1c(CNC=O)nc2ccccc21,-0.05,0.35
Cc1onc(-c2ccccc2Cl)c1C(=O)SCC(=O)Nc1cc(C(F)(F)F)cc(C(F)(F)F)c1,-0.27,.
CCn1c(=O)c2cc(C(=O)NCCc3ccsc3)sc2c2ccccc21,-0.1,-1.6
O=C(O)c1cc(C2CC2)[nH]n1,.,0.25
COc1ccc(C(=O)Nc2ccc3[nH]ccc3c2)cc1,0.055,0.7
O=C(NCCCN1CCOCC1)c1cc(-c2ccc(O)cc2)on1,-1.1,-0.95
COc1ccccc1-c1nc(-c2cccs2)cc(=O)o1,-0.56,1.2
O=C1N/C(=C/c2ccc(N3CCCC3)cc2)C(=O)N1c1ccccc1,-0.22,2.5
COc1ccc(C(N)=O)cc1OC1CCCC1,0.095,.
O=C(NC(=S)N1CCc2ccccc21)C1CCCC1,-0.82,2.1
COc1ccccc1C(C)N (centres undefined),.,0.25
Cc1nc2c(=O)oc3ccccc3c2o1,-0.12,-0.4
Cc1cccc(OCCCC(=O)O)c1C,.,-0.75
CCOC(=O)c1sc(-c2ccc(F)cc2)cc1N,.,0.75
CN1CC2CCC1C/C(=N/O)C2 (centres undefined),-0.14,.
O=C(Oc1ccc(O)cc1)C12CC3CC(CC(C3)C1)C2,-0.19,0.65
O=C(c1cccs1)N1CCN(c2ccc(Cl)cc2)CC1,.,-0.75
CCS(=O)(=O)N1CCc2cc(C(=O)CSc3nnc(COc4ccc(F)cc4)o3)ccc21,.,0.05
Cc1ccc(C(=O)NC2(O)C(=O)c3ccccc3C2=O)cn1,-1.8,-0.6
O=S(=O)(NC1CCCCC1)c1ccc(Cl)s1,0.33,0.05
c1ccc(Cn2nnc3c(N4CCCC4)ncnc32)cc1,.,-0.25
Cc1ccccc1NS(=O)(=O)c1cc2c(c([N+](=O)[O-])c1)-c1c(cc(S(=O)(=O)Nc3ccccc3C)cc1[N+](=O)[O-])C2=O,0.61,.
COc1ccc(N2CCN(C(=O)CNC(C)C3CC4CCC3C4)CC2)cc1 (centres undefined),.,2
CN1C/C(=N\S(=O)(=O)c2ccccc2)N(C)C1=O,0.28,-0.35
Cc1ccc(C(=O)N/C(=C\c2ccc(Cl)cc2)C(=O)NCCCn2ccnc2)cc1,-0.56,.
CC12CCC(C/C1=N\OC(=O)O)C2(C)C (centres undefined),.,0.5
CCOC(=O)CSc1nnc(Cc2cc(=O)[nH]c(=O)[nH]2)n1-c1cc(C)ccc1C,-0.24,-0.65
Cn1cccc1Cc1nnc(SCC(N)=O)n1CCc1ccccc1,-0.33,-1.5
Cc1nnc(SCC(=O)c2ccc3[nH]c(=O)oc3c2)n1Cc1ccccc1,.,1.2
COc1ccc(Cn2c(C)c(CNCc3cccs3)c(C(=O)O)c2C)cc1,1,-1.1
CC1(C)CC(=O)C2=C(C1)c1c(ccc3ccccc13)NC2c1ccc(O)c([N+](=O)[O-])c1 (centres undefined),-0.57,.
COc1ccc(NC(=S)NCCCC2C=NNC2=O)cc1 (centres undefined),-0.46,-1.1
CC(C)(C)N=C1NN=C(c2ccc(Cl)c(Cl)c2)CS1,.,-0.3
CCCN(CCO)C1CCCC(C)C1 (centres undefined),-0.33,-0.6
Cc1ccc(C2(C)CC(C)(C)N(C(=O)CN3C(=O)CCC3=O)c3ccccc32)cc1 (centres undefined),1.2,.
COc1ccc(C2OCC(C)(C(=O)O)CO2)cc1 (centres undefined),0.39,-0.55
CC(C)Cn1c(=S)[nH]c2sc3c(c2c1=O)CC(C)(C)OC3,0.33,.
CC1SC(=S)N(c2ccc(N(C)C)cc2)C1=O (centres undefined),0,-2.8
Nc1no[n+]([O-])c1-c1ccccc1,-0.01,-1.3&0.35
O=C(N/N=C/c1ccc2ccccc2n1)c1ccc(C(F)(F)F)cc1,0.23,.
Cc1sc2c(c1C)c(=O)n(-c1ccccc1)c1nncn21,-0.11,.
CC(C)(C)C(=O)[C@@H]1[C@@H](c2ccsc2)C(C#N)(C#N)[C@H]2C=Cc3ccccc3N12,6.7,.

# Entries listed so far containing a Cl atom:
SMILES,Ba CapD inh,AID504770
CC(C)NC(=S)NNc1ncc(C(F)(F)F)cc1Cl,.,-0.1
FC(F)(F)c1cnc(/N=C/N2CCCCC2)c(Cl)c1,10,.
NC(=O)CSc1nnc2c(n1)[nH]c1ccc(Cl)cc12,.,3.6
COc1ccc(COC(=O)NNC(=O)c2ccncc2)c(Cl)c1OC,-0.45,.
Clc1cc(CN2CCN(C(c3ccccc3)c3ccccc3)CC2)ccn1,-0.47,.
CC(C)NC(=O)CSCc1ccc(Cl)cc1,0.27,-0.1
Cn1cnc2c(Cl)ncnc21,.,0.5
Cc1cc(C(=O)Nc2cccc(Cl)c2)on1,-0.35,-0.7
CN(C)CC[C@H](c1ccc(Cl)cc1)c1ccccn1,.,-0.05
CCCn1nc(NC(=O)c2cccc(Cl)c2)c2cc3cc(C)ccc3nc21,-0.92,0.7
Cc1onc(-c2ccccc2Cl)c1C(=O)SCC(=O)Nc1cc(C(F)(F)F)cc(C(F)(F)F)c1,-0.27,.
O=C(c1cccs1)N1CCN(c2ccc(Cl)cc2)CC1,.,-0.75
O=S(=O)(NC1CCCCC1)c1ccc(Cl)s1,0.33,0.05
Cc1ccc(C(=O)N/C(=C\c2ccc(Cl)cc2)C(=O)NCCCn2ccnc2)cc1,-0.56,.
CC(C)(C)N=C1NN=C(c2ccc(Cl)c(Cl)c2)CS1,.,-0.3

# Screens: PubChem BioAssay, ICCB-Longwood Screening Facility, Harvard Medical School
